EPAC1 ag val – human EPAC1 agonism, validation. O95398. EPAC1 Rap1b BODIPY-GDP exchange, fluorescence. Potency, µM, inactives show max response, positive = active, hits mostly activators. 16,000 tested, 1% active. AID 1645883; active = well fitted activation curve with a large enough effect; inconclusive = small, poorly fitted or top-dose-only effect; inactive = no such curve, though single readings can be large or run the other way;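 note: nearly all actives have a fitted effect of over 70% in size; series mostly up to about 76 or 150 µM; scaled to a cAMP control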
Target sequence (O95398 whole entry, looked up): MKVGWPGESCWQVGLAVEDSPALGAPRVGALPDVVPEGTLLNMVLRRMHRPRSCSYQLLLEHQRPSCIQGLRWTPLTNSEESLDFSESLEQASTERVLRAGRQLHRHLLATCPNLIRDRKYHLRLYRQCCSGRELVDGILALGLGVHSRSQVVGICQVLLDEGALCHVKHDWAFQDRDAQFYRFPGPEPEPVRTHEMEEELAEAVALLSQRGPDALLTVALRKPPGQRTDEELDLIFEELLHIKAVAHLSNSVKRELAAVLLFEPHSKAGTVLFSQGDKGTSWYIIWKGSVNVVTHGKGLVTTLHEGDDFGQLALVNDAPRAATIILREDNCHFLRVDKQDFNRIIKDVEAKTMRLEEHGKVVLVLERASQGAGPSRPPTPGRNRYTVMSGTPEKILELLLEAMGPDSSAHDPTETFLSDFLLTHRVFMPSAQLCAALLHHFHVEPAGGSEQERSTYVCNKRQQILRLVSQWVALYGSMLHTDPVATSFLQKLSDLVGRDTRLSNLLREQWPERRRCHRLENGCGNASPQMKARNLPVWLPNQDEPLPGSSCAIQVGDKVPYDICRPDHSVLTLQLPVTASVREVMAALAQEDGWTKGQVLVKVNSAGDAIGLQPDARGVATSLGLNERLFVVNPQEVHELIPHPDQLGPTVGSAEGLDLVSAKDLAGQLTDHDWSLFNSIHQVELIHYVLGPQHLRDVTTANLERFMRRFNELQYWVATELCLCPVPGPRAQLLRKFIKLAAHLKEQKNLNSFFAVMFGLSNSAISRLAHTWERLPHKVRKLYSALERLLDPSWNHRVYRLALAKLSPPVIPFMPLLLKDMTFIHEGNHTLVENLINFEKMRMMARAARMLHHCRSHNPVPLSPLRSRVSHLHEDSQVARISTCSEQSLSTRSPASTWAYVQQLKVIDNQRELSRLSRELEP
An asterisk follows results filed as active; ? = inconclusive; & = joins results of further samples; [ ] = dose if it differs, or a comment. % is set by controls: 0 for no effect and ±100 for the full control effect; potency is the fitted concentration of half-maximal effect. The list is partial; count on the stated rates, not on these rows.

EPAC1 ag val,smiles
-13%,COc1cccc(Nc2ncc3nc(-c4ccc(Cl)cc4)c(=O)n(C[C@H]4CCCO4)c3n2)c1
5%,Clc1ccccc1-c1nccc(NCc2ccccc2)n1
-13%,COc1cccc2oc(-c3ccc(O)cc3)cc(=O)c12
-18%,N[C@]1(C(=O)O)CCc2cc(P(=O)(O)O)ccc21
5%,O=C(O)COc1ccc(OCCNC[C@@H](O)COc2ccccc2)cc1
-49%[inhibitor],c1cncc(-c2nc(N3CCNCC3)c3ccccc3n2)c1
23%,NCCn1c(=O)c(CCc2ccccc2)nc2cncnc21
29%&0%,CC(=O)N[C@@H](C=O)[C@H](O)[C@H](O)[C@@H](O)CO
5%,NC(=O)c1ccc[n+]([C@@H]2OC(COP(=O)([O-])OP(=O)(O)OCC3OC(n4cnc5c(N)ncnc54)C(O)C3O)C(O)C2O)c1 (stereo not given in full)
-1%&15%,c1ccc(N2CCN(CCCOc3ccc4c(c3)OCO4)CC2)cc1
7%,COc1ccc(Oc2ncc3nc(C)c(=O)n(C[C@H]4CCCO4)c3n2)cc1
-167%&-36%[inhibitor],COc1cc(/C=C/C(=O)O[C@H]2CC[C@]34C[C@]35CC[C@]3(C)[C@@H]([C@H](C)CCC=C(C)C)CC[C@@]3(C)[C@@H]5CC[C@H]4C2(C)C)ccc1O
6%,CC1(C)OC2CC3C4CC(F)C5=CC(=O)C=CC5(C)C4C(O)CC3(C)[C@]2(C(=O)CO)O1 (stereo not given in full)
6%,COc1cc(=O)n2c(c1C(=O)N(C)Cc1ccsc1)CCN(Cc1c(C)nn(C)c1Cl)CC2
-4%,CN(C)CCC=C1c2ccccc2COc2ccccc21
-27%,O=C(O)COc1nn(Cc2ccccc2)c2ccccc12
6%,COc1ccc(C(=O)N2CCC3(CCCN(CC(C)C)C3)CC2)cc1
-43%[inhibitor],CC1=C(C)C(=O)C(C(CCCCCC(=O)O)c2ccccc2)=C(C)C1=O (stereo not given)
23%,O=C(C[N+]1(c2ccccc2)CCOCC1)c1ccccc1
-32%[inhibitor],CC(=O)OCC1OC(n2cnc3c(Cl)nc(Cl)nc32)C(OC(C)=O)C1OC(C)=O (stereo not given)
-11%,COc1cccc(C(=O)NCC2Cc3cccc(-c4ncccn4)c3O2)c1OC (stereo not given)
-1%&3%,N=c1ccn2c(n1)OC1C(O)C(CO)OC12 (stereo not given)
?,CN1CCC(=O)N([C@H](CN=[N+]=[N-])Cc2ccccc2)CC1
-23%,c1ccc2c(NCCN3CCOCC3)nc(-c3ccoc3)nc2c1
15%,O=c1ccc2cc(O)c(O)cc2o1
?,OCc1c[nH]c2ccccc12
-21%,Cc1ccc(CN2CCOc3ccc(CN4CCN(CCO)CC4)cc3C2)s1
-26%,Nc1cccc2c1CN(C1CCC(=O)NC1=O)C2=O (stereo not given)
20%,C#CCN(Cc1ccc(OC)cc1)S(=O)(=O)C=C
?,CC(=O)Nc1ccn(C2COC(COC(=O)c3ccccc3)O2)c(=O)n1 (stereo not given)
-15%,COc1ccc2c3c1OC1C[C@@H](O)C=C[C@@]31CCN(C)C2 (stereo not given in full)
-12%,CC(C)C[C@@H](COc1ccccc1)N1CCN(CCc2ccccc2)CCC1=O
?,CS(=O)(=O)N1CCC2(CCCN(C(c3ccccc3)c3ccccc3)C2)CC1
4%,CCC1CN(CCNC(=O)c2ccsc2)Cc2cc(OC)ccc2O1 (stereo not given)
-108%[inhibitor],CC(=O)/C=C/c1ccc2c(c1)S(=O)(=O)N(C1CCCC1)[C@H]2CC(C)=O
15%,COc1cc(=O)n2c(c1C(=O)N1CCc3ccccc3C1)CCN(Cc1ccc(CO)o1)CC2
9%&1%,Cc1c(C)c2c(c(C)c1O)CCC(C)(COc1ccc(CC3SC(=O)NC3=O)cc1)O2 (stereo not given)
-32%[inhibitor],CN(C)C(=O)c1ccc(-c2ccc3ncnc(N4CCC(C(=O)O)CC4)c3c2)cc1
-44%[inhibitor],CN1CCC2(CC1)CCN(C(=O)c1cccc(F)c1)CC2
-9%,Cc1nccn1CC1CCC2C(C1=O)c1ccccc1N2C (stereo not given)

In the list so far, 2 contain a furan ring, fused or not:
EPAC1 ag val,smiles
-23%,c1ccc2c(NCCN3CCOCC3)nc(-c3ccoc3)nc2c1
15%,COc1cc(=O)n2c(c1C(=O)N1CCc3ccccc3C1)CCN(Cc1ccc(CO)o1)CC2

Next part
EPAC1 ag val,smiles
5%,O=C(NCc1nnc2n1CCN(Cc1cccc(C(F)(F)F)c1)CC2)c1ccncc1
-125%[inhibitor],C=C1C(=CC=C2CCC[C@@]3(C)[C@@H]2CC[C@H]3[C@H](C)CCCC(C)C)C[C@@H](O)C[C@@H]1O
100µM*,Cc1cnc2ccccc2c1/C=C/c1ccc(N(C)C)cc1
-50%[inhibitor],COc1ccc(Oc2ncc3nc(CCc4ccccc4)c(=O)n(C)c3n2)cc1
6%,COc1ccc(CN2CCOc3ccc(CN4CCC(O)(c5cccnc5)CC4)cc3C2)c(C)c1C
29%,Cc1noc(C)c1C(=O)N1CCC[C@@]2(CCN(Cc3nccs3)C2)C1
-4%,N[C@H](C(=O)O)C1C(C(=O)O)C1C(=O)O (stereo not given in full)
-1%,Cc1cnc(CNc2ccnc(-c3ccccc3CN(C)C)n2)cn1
16%,Cc1noc(C)c1-c1ccc2ncnc(N(C)Cc3ccco3)c2c1
-11%,CCCCCc1ccc(-c2cn(CCc3c[nH]c4ccccc34)nn2)cc1
11%,O=C(CN1CCN(Cc2ccc3c(c2)OCO3)CC1)N1c2ccccc2Sc2ccccc21
-2%,CC(=O)Oc1ccc(C)cc1
7%,COC(=O)C[C@H]1c2cc(F)ccc2S(=O)(=O)N1C1CC1
-1%,CN(Cc1ccco1)c1ccnc(-c2ccoc2)n1
1%,O=c1cc(-c2cccc(O)c2O)oc2ccccc12
4%&-24%,O=C(OCC(O)CO)c1ccccc1Nc1ccnc2cc(Cl)ccc12 (stereo not given)
-16%,CCCCCCCCN1[C@@H](CC(=O)O)c2cc(F)ccc2S1(=O)=O
-18%,N#Cc1cccc(-c2ccc3ncnc(NCCN4CCOCC4)c3c2)c1
?,O=C(COCCOCCOCC(=O)Nc1c(I)cc(I)c(C(=O)O)c1I)Nc1c(I)cc(I)c(C(=O)O)c1I
-7%,COc1ccc2c(c1)O[C@@H]1c3ccc(OC)cc3OCC21 (stereo not given in full)

Look-ups from the entries so far.
For EPAC1 ag val, `CC(=O)Oc1ccc(C)cc1` has -2%
For EPAC1 ag val, `C=C1C(=CC=C2CCC[C@@]3(C)[C@@H]2CC[C@H]3[C@H](C)CCCC(C)C)C[C@@H](O)C[C@@H]1O` has -125%[inhibitor]
For EPAC1 ag val, `O=C(NCc1nnc2n1CCN(Cc1cccc(C(F)(F)F)c1)CC2)c1ccncc1` has 5%
For EPAC1 ag val, `CCCCCc1ccc(-c2cn(CCc3c[nH]c4ccccc34)nn2)cc1` has -11%

Next records follow:
EPAC1 ag val,smiles
-22%,C=C1CCC[C@]2(C)C[C@H]3OC(=O)[C@H](CNCCc4ccccc4OC)C3CC12 (stereo not given in full)
10%,COCc1ccc(CN2Cc3ccccc3OC(c3ccccc3OC)C2)o1 (stereo not given)
-9%,CNC(=O)[C@@H]1C[C@H](Sc2nc3ccccc3[nH]2)CN1Cc1cccc(C(F)(F)F)c1
?,O=Cc1ccnc2ccccc12
-24%,CCCCCCCCCCCCCCCCCCOCC(COP(=O)([O-])OCC[N+](C)(C)C)OC (stereo not given)
-28%,COC(=O)N1CCC2(CCCN(Cc3cc(C(F)(F)F)cc(C(F)(F)F)c3)C2)CC1
1%,N#Cc1cccc(-c2cc(-n3ccnc3)ncn2)c1
-7%,COCC(=O)N1CCC2(CCCN(c3ccc(-c4ccccc4)cc3)C2)CC1
-3%,CC(CC(c1ccccc1)c1ccccc1)NC(C)(C)C (stereo not given)
-63%[inhibitor],O=S(=O)(O)c1ccc2c(N=Nc3ccc(S(=O)(=O)O)c4ccccc34)c(O)c(S(=O)(=O)O)cc2c1
-11%&-12%,CN(C)CCCCSC(=N)N
-44%[inhibitor],COc1ccc(C(=O)N2CCC3(CCN(Cc4ccccc4OC)CC3)CC2)cc1
12%,COC(=O)C(N)CS (stereo not given)
?,O=c1c(O)c(-c2ccc(O)c(O)c2)oc2cc(O)cc(O)c12
-25%,O=c1c(-c2ccc(F)c(F)c2)nc2cncnc2n1-c1ccccc1
?,Cn1c(=O)c(-c2cc(F)cc(F)c2)nc2cnc(N3CCNCC3)nc21
-9%&-13%,CC1(C)Oc2ccc(C#N)cc2[C@@H](OC2=CC(=O)CC2)[C@@H]1O
-30%[inhibitor],N#Cc1cccc(-c2nc(Nc3ccncc3)c3ccccc3n2)c1
112µM*,COC(=O)N1CCC2(CCCN(c3cccc(-c4ccccc4)c3)C2)CC1
?,CC(=O)OC1C(=O)[C@@]2(C)C(O)CC3OC[C@]3(OC(C)=O)C2C(OC(=O)c2ccccc2)[C@]2(O)CC(OC(=O)C(O)C(NC(=O)c3ccccc3)c3ccccc3)C(C)=C1C2(C)C (stereo not given in full)
4%,O=C(O)C1=C[C@@H](O)[C@@H](O)[C@H](O)C1
-18%,COc1ccc(C2OCC3(COC(C)=O)C(C)C=C(C)C2C3C)cc1 (stereo not given)
28%,Nc1nc2ncc(=O)[nH]c2c(=O)[nH]1
-2%,CC(=O)[C@H]1[C@H](C#N)C[C@H]2[C@@H]3CC=C4C[C@@H](O)CC[C@]4(C)[C@H]3CC[C@@]21C
?,COc1cc(C)c2c(c1C=O)Oc1c(c(C)c(O)c3c1C(O)OC3=O)OC2=O (stereo not given)
?,COc1ccccc1-c1ccc2ncnc(NC3CCNCC3)c2c1
-6%,CCOC(=O)N1CCN(Cc2ccc3c(c2)CN(C(=O)c2sc(C)nc2C)CCO3)CC1
6%,CCOC(=O)N1CCN(Cc2ccc3c(c2)CN(C(=O)c2cc(-c4ccccc4)no2)CCO3)CC1
-27%,CS(=O)(=O)Nc1cccc(-c2cc(NCc3ccccc3)ncn2)c1
7%,COCC(=O)Nc1cc(C(=O)N2CCCC(c3ccccc3)CC2)c2c(c1)nc(-c1ccncc1)n2C (stereo not given)
?,O=C(c1cnccn1)N1CCC2(CCCN(c3cccc(-c4ccccc4)c3)C2)CC1
2%,COC(=O)[C@@H]1CCCN1Cc1ccc2c(c1)CN(Cc1ccccc1)CCO2
-29%,CC1(C)CC2C1CCC1(C)OC1CCC2(C)O (stereo not given)
-14%,CN(C)c1ncnc2ccc(-c3cccc(NS(C)(=O)=O)c3)cc12
17%,O=S(=O)(NCc1ccc(F)cc1)c1cc(Br)ccc1Br
0%&-3%&-1%,CNC(=O)c1cc2c(cn1)[nH]c1ccccc12
2%,CCC1CN(CCNC(=O)c2cccc(N3CCCC3=O)c2)Cc2cc(OC)ccc2O1 (stereo not given)
?,Cc1cc[n+](C2CCCCC2)c2ccccc12
-8%,O=C(Nc1ccccc1)N1CC2(CCN(C(=O)c3cnccn3)CC2)C1
100µM*,Cc1cc(/C=C/c2ccnc3ccccc23)ccc1N(C)C

Molecules above that contain an NH in an aromatic ring, in the order listed:
EPAC1 ag val,smiles
?,OCc1c[nH]c2ccccc12
-11%,CCCCCc1ccc(-c2cn(CCc3c[nH]c4ccccc34)nn2)cc1
-9%,CNC(=O)[C@@H]1C[C@H](Sc2nc3ccccc3[nH]2)CN1Cc1cccc(C(F)(F)F)c1
28%,Nc1nc2ncc(=O)[nH]c2c(=O)[nH]1
0%&-3%&-1%,CNC(=O)c1cc2c(cn1)[nH]c1ccccc12

Next part
EPAC1 ag val,smiles
-16%,Cc1oc(-c2ccccc2NC(=O)c2cccnc2)nc1CNC(=O)C1CCCCCN1C (stereo not given)
-26%,Clc1ccccc1-c1nc(NCc2cccnc2)c2ccccc2n1
-24%,CCCCC(=O)OCC(=O)[C@H]1[C@H](C)C[C@H]2[C@@H]3C[C@H](F)C4=CC(=O)C=C[C@]4(C)[C@@]3(F)[C@@H](O)C[C@@]21C
-17%,C=C1C(=C/C=C2\CCC[C@]3(C)[C@@H]([C@H](C)CCCC(C)(C)O)CC[C@@H]23)C[C@@H](O)C[C@@H]1O
-7%,COc1ccc(OC)c(CN2C[C@H](Sc3ccc(F)cc3)C[C@H]2C(=O)N(C)C)c1
-24%&-21%,O=C1C=C(O)c2ccccc2C1=O
3%,COc1ccc(-n2c(CCNC(=O)c3ccccc3C(F)(F)F)nnc2SC)cc1
?,C[C@@H]1[C@H](c2ccccc2)OCCS(=O)(=O)N1Cc1ccc(F)cc1
-34%[inhibitor],COc1ccc(C(=O)N2CCC3(CCN(C(=O)Nc4cccc(C#N)c4)CC3)CC2)cc1
-23%,C=CCN(C(=O)OC(C)(C)C)S(=O)(=O)NCc1ccccc1
20%,CCN(CC)CCN(C)c1ccc(/C=C/c2ccnc3ccccc23)cc1
?,COCCn1c(=O)c(-c2ccc(F)cc2)nc2cnc(Oc3cccc(Cl)c3)nc21
-114%[inhibitor],COc1ccc(-n2c(=O)c(-c3cn(C)c4ccccc34)nc3cncnc32)cc1
12%,COc1ccccc1CNc1ncncc1-c1ccccc1C
-44%[inhibitor],O=C(c1ccncc1)N1CCC2(CCCN(c3ccncc3)C2)CC1
17%,COc1ccc(SCCN2CC[C@@H](C)CCC2=O)cc1
-2%,COC(=O)C[C@H]1c2cc(C(F)(F)F)ccc2S(=O)(=O)N1c1ccc(N(C)C)cc1

Grouped by structure: the compounds so far with a CF3 group
EPAC1 ag val,smiles
5%,O=C(NCc1nnc2n1CCN(Cc1cccc(C(F)(F)F)c1)CC2)c1ccncc1
-9%,CNC(=O)[C@@H]1C[C@H](Sc2nc3ccccc3[nH]2)CN1Cc1cccc(C(F)(F)F)c1
-28%,COC(=O)N1CCC2(CCCN(Cc3cc(C(F)(F)F)cc(C(F)(F)F)c3)C2)CC1
3%,COc1ccc(-n2c(CCNC(=O)c3ccccc3C(F)(F)F)nnc2SC)cc1
-2%,COC(=O)C[C@H]1c2cc(C(F)(F)F)ccc2S(=O)(=O)N1c1ccc(N(C)C)cc1

Screening results from PubChem BioAssay.
